# Source: PubChem (several laboratories)
# HNF4A DNA FP – change in binding of human HNF4 alpha to DNA; activity change, % at 10 µM; P41235; HNF4a-FITC DNA binding, fluorescence polarization, 1 h; 360,000 tested, 0.3% active; in the data active = activity change above about 30%, passing the limit was not always enough;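 note: controls were the assay level and a saturating level of protein; the project sought stronger binding though the title names inhibitors; some compounds called inactive have numbers as strong as hits; positive values seem to mean higher polarization but the record does not say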
# E coli growth – blocks Escherichia coli growth | OD600, 23 h; hits give low values | OD600 absorbance (test concentration not listed) | 330,000 tested, 0.21% active;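 active = OD600 absorbance below the run mean of sample wells minus 3.6 SD, in any replicate, cut at about 0.56 in these data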;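 note: stock transfer was 300 nL into about 60 µL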
# LANA-H2B inh – blocks KSHV LANA binding to histone H2A/H2B; inhibition, % (test concentration not listed); 320,000 tested, 0.6% active; Q9QR71; cell-free LANA-H2A/H2B peptide, fluorescence polarization; in the data active = inhibition mostly above about 10%, no sharp cut-off; inactive = mostly below about 6.7%;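 note: stock transfer was 7.5 nL into about 10 µL; 0% = median of vehicle wells and 100% = median of positive control wells; one replicate is shown; the record names a cut of 25% in any replicate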
# Target sequence (Q9QR71 whole entry, looked up): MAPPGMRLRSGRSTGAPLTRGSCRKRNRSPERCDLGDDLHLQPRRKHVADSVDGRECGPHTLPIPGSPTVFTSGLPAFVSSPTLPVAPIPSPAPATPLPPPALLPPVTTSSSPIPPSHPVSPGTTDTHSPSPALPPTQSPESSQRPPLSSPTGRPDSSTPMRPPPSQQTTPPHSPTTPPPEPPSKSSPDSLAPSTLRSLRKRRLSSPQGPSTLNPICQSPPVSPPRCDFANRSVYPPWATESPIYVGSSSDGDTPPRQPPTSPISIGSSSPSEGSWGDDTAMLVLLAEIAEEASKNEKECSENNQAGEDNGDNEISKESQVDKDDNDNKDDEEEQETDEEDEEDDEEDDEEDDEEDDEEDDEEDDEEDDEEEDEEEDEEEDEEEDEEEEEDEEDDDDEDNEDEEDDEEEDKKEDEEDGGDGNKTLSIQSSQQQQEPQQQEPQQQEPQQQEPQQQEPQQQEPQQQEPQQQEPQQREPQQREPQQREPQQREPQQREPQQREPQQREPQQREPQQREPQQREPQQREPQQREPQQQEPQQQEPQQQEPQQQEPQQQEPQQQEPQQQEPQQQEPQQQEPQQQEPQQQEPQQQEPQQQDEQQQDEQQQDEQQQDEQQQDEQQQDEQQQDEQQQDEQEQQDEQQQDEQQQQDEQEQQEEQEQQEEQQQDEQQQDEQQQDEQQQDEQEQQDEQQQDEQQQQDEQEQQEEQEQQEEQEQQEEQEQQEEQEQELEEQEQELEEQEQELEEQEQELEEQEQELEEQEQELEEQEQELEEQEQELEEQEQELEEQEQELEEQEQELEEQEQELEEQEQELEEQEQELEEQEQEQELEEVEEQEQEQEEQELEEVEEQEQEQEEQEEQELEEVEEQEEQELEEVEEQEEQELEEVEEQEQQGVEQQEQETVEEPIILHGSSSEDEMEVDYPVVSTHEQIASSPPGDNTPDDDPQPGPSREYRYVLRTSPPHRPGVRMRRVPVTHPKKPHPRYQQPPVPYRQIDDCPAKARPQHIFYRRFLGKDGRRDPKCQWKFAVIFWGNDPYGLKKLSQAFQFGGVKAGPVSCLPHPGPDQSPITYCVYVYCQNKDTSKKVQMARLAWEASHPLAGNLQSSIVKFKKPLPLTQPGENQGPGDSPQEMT
# B2AR ag – human beta-2 adrenergic receptor agonism by FAP. Am2.2-beta2AR cells, FAP receptor internalization, flow cytometry; reference of the scale not given here. AID 504454. response, % (concentration not given with the values). 340,000 tested, 0.43% active. P07550;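 active = response above a set limit, near 3 SD of response in nonfluorescent compounds, cut at about 42% in these data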;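 note: stock transfer was 100 nL into about 11 µL; a reference agonist was the positive control; negative values mostly stem from fluorescent compounds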
# UCH37 inh – blocks the human deubiquitinase UCH37; purified proteasome/UCH37, Ub-AMC cleavage fluorescence; inhibition, % (no concentration beside the values); 330,000 tested, 0.33% active; AID 588478;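 active = mean of two replicates above 20%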;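 note: 0% = compound-free wells with enzyme and 100% = wells lacking proteasome; stock transfer was 100 nL into about 20 µL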
#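 Material: Human UCH37 enzyme supplied as purified proteasome complex | Schedule: 30 min compound-proteasome preincubation then 25 min substrate reaction, room temperature | Detection: AMC fluorescence from Ub-AMC cleavage, excitation 355 nm, emission 460 nm | Benchmarks: Wells without proteasome as full block, compound-free enzyme plus substrate as uninhibited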
# Vif TR-FRET – inhibitors of Vif binding to APOBEC3G peptide, primary screen, biochemical, TR-FRET, GST-Vif 1-94, biotin-A3G peptide, dose response retest (AID 1117319); TR-FRET GST-Vif / biotin-A3G peptide binding; higher % means a stronger effect; test concentration not given here; strong numbers were not always called active; 260,000 tested, 0.57% active; one-dose inhibition, %; IC50 in µM for titrated hits;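 active = above the screen mean plus three standard deviations and confirmed in dose response; inconclusive = results disagree or hit not tested in dose response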;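 note: Vif residues 1-94 fused to GST binding biotinylated APOBEC3G peptide 110-148; 0% = full assay without inhibitor and 100% = GST in place of GST-Vif; retest series ran down from 100 µM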
# A1 inh – inhibitors of the anti-apoptotic protein A1, read as caspase activation; MEF A1-2A-BIM cells, Caspase-Glo 3/7 luminescence, 3 h; percent of clofoctol response, vehicle zero; caspase activation, % (concentration not given with the values); 330,000 tested, 0.066% active;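 active = over half of replicate activation scores above 10%, or exactly half above 10 with the replicate mean above 10; inconclusive = replicate mean below 10 yet half the replicates above 10; inactive = over half of replicates below 10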;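 note: wells of about 30 µL received 50 nL stock; many hits fall short of the cut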
# An asterisk follows results filed as active; u = inconclusive; x = not tested or not shown; & = joins results of further samples.
SMILES,HNF4A DNA FP,E coli growth,LANA-H2B inh,B2AR ag,UCH37 inh,Vif TR-FRET,A1 inh
COc1ccccc1CNN,-1.2,0.73,0.5,-2,6.0,3%,2.0
Cc1ccc(-n2c(SCC(=O)Nc3ccc(N4CCOCC4)cc3)nc3ccccc3c2=O)cc1,0.8,0.7,9.9,-6,0.8,8%,-0.5
N#C/C(=C\c1ccccn1)c1ccccn1,0.6,0.7,-8.4,7,1.6,-2%,-1.1
Cc1cccc(C)c1NC(=O)CSc1nnc(Cn2nnc(-c3ccccc3)n2)n1-c1ccccc1,-2.7,0.71,5.8,-3,5.7,-5%,-0.1
CNc1c(NS(=O)(=O)c2ccc(C(C)(C)C)cc2)c(=O)oc2ccccc12,1.0,0.73,-0.5,5,-26,x,1.4
O=C(CSc1nc2ccccc2nc1SCC(=O)N1CCOCC1)N1CCOCC1,0.2,0.72,0.5,-1,0.9,1%,0.2
CC(C)OCCCNC(=O)c1ccc(NC(=O)C2=CSCCO2)cc1,0.5,0.66,-8.2,-15,5.8,x,-0.2
Cc1ccc2[nH]c(=O)c(C(c3nnnn3CC3CCCO3)N3CCc4ccccc4C3)cc2c1 (stereo not given),-7.6,0.72,1.3,-4,1.4,2%&3%,0.3
COCCN1CCn2c(nc3cc(NC(C)=O)ccc32)C1,1.9,0.68,1.5,-2,-73,-3%,1.7
Cc1nc2cc(NC(=O)NC3CC3)ccc2n1C,0.0,0.73,6.1,-6,4.5,26%,-0.3
O=[N+]([O-])c1ccccc1S(=O)(=O)NCCC1=CCCCC1,-0.4,0.64,-5.9,-3,3.5,6%,0.1
COc1ccc(CN2CCN(Cc3cc(=O)oc4cc(C)ccc34)CC2)c(OC)c1OC,0.9,x,0.2,10,x,1%,0.9
COc1ccc(CNC(=O)C(C)Sc2nc3ccccc3c(=O)n2CC2CCCO2)cc1 (stereo not given),-0.2,0.67,-2.3,3,2.9,-3%,0.3
CCCCCC1=C(C(=O)OC)C(C(=O)OCC)N(S(=O)(=O)C(F)(F)F)c2ccccc21 (stereo not given),1.6,0.73,x,2,-1.4,-8%,x
COc1ccc(NC(=O)CN2CCC(NC(=O)C3CCCCC3)CC2)c([N+](=O)[O-])c1,-0.4,0.67,-2.0,-6,-2.6,-4%,-0.4
Cc1nc(N)nc(SCc2ccc([N+](=O)[O-])cc2)c1N,3.1,0.68,-4.3,11,-5.5,x,-2.0
CN(C)CCN(C(=O)c1cccc(Cl)c1)c1nc2c(Cl)cccc2s1,-4.1,0.69,x,-8,-1.6,x,-0.3
CCc1ccc(/C=C2\C(=N)N3N=C(CC(=O)N4CCCCC4)SC3=NC2=O)cc1,0.4,0.69,-2.0,0,6.5,x,-0.7
O=C(O)c1ccc(N=Nc2c(O)[nH]c3cc(Cl)ccc23)cc1,20,x,4.0,26,x,4%,-6.5
CN(/N=C/c1cc(Br)cc(Br)c1O)c1ccccc1,2.2,x,1.3,-6,x,-4%,0.0

# Look-ups from above:
# For A1 inh, COc1ccc(NC(=O)CN2CCC(NC(=O)C3CCCCC3)CC2)c([N+](=O)[O-])c1 is listed with -0.4
# For A1 inh, O=C(CSc1nc2ccccc2nc1SCC(=O)N1CCOCC1)N1CCOCC1 is listed with 0.2
# For E coli growth, CCc1ccc(/C=C2\C(=N)N3N=C(CC(=O)N4CCCCC4)SC3=NC2=O)cc1 is listed with 0.69
# For B2AR ag, Cc1nc(N)nc(SCc2ccc([N+](=O)[O-])cc2)c1N is listed with 11
# For UCH37 inh, Cc1ccc(-n2c(SCC(=O)Nc3ccc(N4CCOCC4)cc3)nc3ccccc3c2=O)cc1 is listed with 0.8
# For HNF4A DNA FP, CN(C)CCN(C(=O)c1cccc(Cl)c1)c1nc2c(Cl)cccc2s1 is listed with -4.1

# Entries from the list above with a halogen, in the order listed:
SMILES,HNF4A DNA FP,E coli growth,LANA-H2B inh,B2AR ag,UCH37 inh,Vif TR-FRET,A1 inh
CCCCCC1=C(C(=O)OC)C(C(=O)OCC)N(S(=O)(=O)C(F)(F)F)c2ccccc21 (stereo not given),1.6,0.73,x,2,-1.4,-8%,x
CN(C)CCN(C(=O)c1cccc(Cl)c1)c1nc2c(Cl)cccc2s1,-4.1,0.69,x,-8,-1.6,x,-0.3
O=C(O)c1ccc(N=Nc2c(O)[nH]c3cc(Cl)ccc23)cc1,20,x,4.0,26,x,4%,-6.5
CN(/N=C/c1cc(Br)cc(Br)c1O)c1ccccc1,2.2,x,1.3,-6,x,-4%,0.0

# The results go on.
SMILES,HNF4A DNA FP,E coli growth,LANA-H2B inh,B2AR ag,UCH37 inh,Vif TR-FRET,A1 inh
Cc1ccc(OCC(=O)OCC(=O)NC2CCCC2)cc1C,3.6,0.69,-0.8,0,5.5,x,-0.8
O=C1c2ccccc2C(=O)N1CCc1nc2ccccc2c(=O)n1Cc1ccco1,-1.6,0.75,-3.9,-2,1.2,3%,-0.2
O=C(NCC(=O)N1CCCC1C(=O)O)OC1CCCCC1 (stereo not given),0.6,0.78,-0.1,-5,6.2,u,-1.4
Cc1ccc(CN2CCCN(C)CC2)c(C)c1,3.3,0.66,5.8,4,3.5,x,1.1
Cc1ccc(C(=O)Nc2ccccc2C(=O)O)cc1S(=O)(=O)Nc1ccccc1,-2.1,0.7,-0.7,24,-1.4,-2%,-2.3
O=C(O)c1ccc(COc2ccccc2C=C2C(=O)c3ccccc3C2=O)cc1,1.5,0.72,1.4,4,0.5,13%,-1.3
CC(C)CC(=O)OC1C(N2CCOCC2)c2c(ccc(/C=C/C(=O)N3CCOCC3)c2O)OC1(C)C (stereo not given),2.7,0.67,3.1,6,-69,x,0.4
O=C(NNC(=O)c1ccc([N+](=O)[O-])cc1)c1ccncc1,1.5,0.69,0.5,0,2.5,-7%,-0.2
O=[N+]([O-])c1ccc(O)c(N=Cc2sc3ccccc3c2O)c1,34,0.73,-4.8,-7,6.0,19%,-7.0
COC(=O)[C@]1(C)N[C@H](CN(C)C(=O)COc2ccccc2)[C@@H]2C(=O)N(C)C(=O)[C@@H]21,-1.9,0.7,x,-10,2.5,5%,x
Cn1c(N)c(N=Nc2ccc(S(N)(=O)=O)cc2)c(=O)n(C)c1=O,1.5,0.69,1.5,1,16,26%,-1.2
CCOc1ccccc1CNC(=O)c1c([N+](=O)[O-])c(C)nn1C,4.3,0.7,-2.3,-13,3.5,-2%,-1.2
CN(C)c1ccc(SC#N)cc1,2.9,0.62,-0.9,-3,14,-7%,0.0
CCOC(=O)c1ccccc1NC(=O)Nc1ccc(OC)c(OC)c1,-4.8,0.73,-2.3,-10,-2.9,10%,0.7
Cn1cccc1CC(=O)N/N=C/c1cccc2ccccc12,-2.4,x,-1.0,3,x,7%,0.0
Cc1ccc(C(C)C)cc1S(=O)(=O)Nc1ccncc1,1.1,0.63,0.5,-2,1.3,x,-0.3
O=C(CCc1ccccc1)NCc1ccncc1,2.1,0.67,1.9,-10,0.7,x,0.2
O=C(Nc1ccc(F)c(F)c1)NC1CCCCC1,2.3,0.66,-1.8,-4,1.0,-8%,-1.2
O=C(CNc1cc(S(=O)(=O)N2CCOCC2)ccc1NCC1CCCO1)Nc1ccccc1F (stereo not given),6.7,0.67,-1.3,5,-2.3,x,-0.7
Cc1ccccc1NC(=S)NCCC(c1ccccc1)c1ccccc1,-4.6,0.72,0.7,5,-1.0,1%,0.5
COc1ccc(CCN(Cc2cccs2)S(=O)(=O)c2ccc(S(=O)(=O)N3CCCCCC3)cc2)cc1OC,1.9,0.68,1.1,-2,4.1,4%,0.3
COc1ccc(OC)c(-c2nnc(-c3ccc(C)o3)o2)c1,2.6,0.74,0.8,7,-261,u,-1.8
CN(C)CCNc1ccc(CO)c2sc3ccc(O)cc3c(=O)c12,36*,x,x,-17,x,-3%,x
Cc1ccc(SCC(=O)Nc2ccc3c(c2)OCCO3)cc1,0.3,0.66,-2.3,0,2.9,5%,-1.6
C/C(=N\NC(=S)NCCc1ccccc1)c1ccc(C)cc1,-3.2,x,-0.7,-9,x,0%,-1.1
COc1ccc(CNC(=O)CN(Cc2ccco2)C(=O)CNS(=O)(=O)c2ccc(F)cc2)cc1,-3.5,0.71,10.0,-1,4.6,-6%,0.0
CN(C(=O)c1cc(S(=O)(=O)N2CCCCC2)c[nH]1)C1CCCCC1,1.6,0.73,-0.6,-16,8.3,x,0.4
CC(CCc1ccccc1)NC(=O)C1CCCN(c2nnc(-n3cccc3)s2)C1 (stereo not given),1.9,0.77,2.3,-3,7.3,14%,0.8
Cc1noc(C)c1C1(O)CCCCCCCCCCC1,-1.9,0.72,1.2,11,2.2,x,-0.2
Cc1cccc(CCNS(=O)(=O)c2ccc(S(=O)(=O)NC3CCCC3)cc2)c1,-3.5,0.7,6.2,-6,1.8,u,x
COc1ccc(C(=O)Oc2ccc3c(C)cc(=O)oc3c2C(C)=O)cc1,1.4,0.71,-5.1,8,-11,-4%,0.5
O=C(c1cccc(C(F)(F)F)c1)N1CCc2c([nH]c3ccccc23)C1C(F)(F)F (stereo not given),6.0,0.69,0.4,10,2.9,x,-0.3
CC(=O)c1ccc(NC(=O)CS(=O)(=O)c2cn(CC(=O)N3CCOCC3)c3ccccc23)cc1,0.5,0.71,-0.4,-1,4.0,x,-0.2
CCCSc1ccc([C@@H]2[C@H]3C(=O)N(CC)C(=O)[C@H]3[C@]3(C(=O)OC)CCCCN23)cc1OC,8.3,x,-3.4,-7,0.3,x,1.0
Cc1cc(C(=O)COC(=O)CC2Sc3ccccc3NC2=O)c(C)n1-c1ccccc1 (stereo not given),-0.6,0.69,-0.8,5,0.0,x,-0.7
Cc1cc(NC(=O)C2CC2)ccc1NC(=O)c1cccs1,0.9,0.62,3.7,-4,1.9,x,-0.4
CCN(CC)CC(O)COc1ccc2c(c1)c(C(C)=O)c(C)n2-c1ccccc1 (stereo not given),3.0,0.74,-0.1,-8,3.5,11%,-1.1
O=S(=O)(Nc1ccc(S(=O)(=O)N2CCOCC2)cc1)c1ccc(Br)cc1,-1.1,0.66,-2.6,3,3.8,x,-0.5
CCN(CC)S(=O)(=O)c1cc(NC(=O)C(C)N2CCc3ccccc32)ccc1C (stereo not given),3.2,0.68,6.3,12,-1.0,-4%,0.3
C=CCOC(=O)C1=C(C)OC(N)=C(C#N)C1c1ccc(F)cc1 (stereo not given),-2.8,0.71,-1.0,1,x,6%,0.6
C=CCn1c(N)cc(=O)nc1SCC(=O)Nc1ccc2ccccc2c1,-0.4,0.66,-8.0,-4,5.7,11%,0.0
CCOc1ccc(-c2nnn(CC(=O)N3CCN(c4ccc(F)cc4)CC3)n2)cc1OCC,-3.0,0.67,5.8,-2,5.9,0%,0.1
COc1ccc(N2CCN(C(=O)COC(=O)CCS(=O)(=O)c3ccc(C)cc3)CC2)cc1,2.1,0.63,6.0,14,-1.5,-8%,0.0
Cc1ccc2c(c1)N(C(=O)CCC(=O)NCCN1CCOCC1)CCO2,-2.6,0.69,-3.7,-4,3.6,x,x
COc1ccc(CNS(=O)(=O)CCNC(=O)c2cccc(OC)c2)cc1,2.7,x,0.4,2,x,x,-0.2
COc1ccccc1NC(=O)Cc1c(F)cccc1Cl,2.7,0.65,-1.6,-4,1.4,9%,1.1
CCC(C)NC(=O)c1ccc2c(c1)N(Cc1ccccc1)C(=O)CS2 (stereo not given),4.8,0.69,0.8,-6,1.5,-11%,0.2
O=C(NCCCn1ccnc1)C1c2ccccc2Oc2ccccc21,2.6,0.63,0.1,1,0.6,17%,0.2
CCN(c1ccccc1)S(=O)(=O)c1ccc(N2CCN(c3ccc(OC)cc3)CC2)nc1,1.7,0.64,-5.8,0,-3.1,x,-0.6
CC(C)(C)OC(=O)[C@H](Cc1ccccc1)NC(=O)c1nc[nH]c1C(=O)NC1CCN(C(=O)OC(C)(C)C)CC1,-0.9,x,1.9,6,4.0,-1%,-0.3
